TRPML1 ag – human mucolipin-1 channel agonism; Q9GZU1; hit rate 0.12% among 410,000; TRPML1-expressing cells, Ca2+ dye fluorescence, FDSS; host cell line not named in the record; reference of the full effect not given here; activation, % (test concentration not listed); AID 624414; in the data active = activation above about 50%; inconclusive = about 30% to 50%; inactive = below about 30%; further: 0% is about no effect; the text of the record puts the active cut at 80%
Target sequence (Q9GZU1 whole entry, looked up): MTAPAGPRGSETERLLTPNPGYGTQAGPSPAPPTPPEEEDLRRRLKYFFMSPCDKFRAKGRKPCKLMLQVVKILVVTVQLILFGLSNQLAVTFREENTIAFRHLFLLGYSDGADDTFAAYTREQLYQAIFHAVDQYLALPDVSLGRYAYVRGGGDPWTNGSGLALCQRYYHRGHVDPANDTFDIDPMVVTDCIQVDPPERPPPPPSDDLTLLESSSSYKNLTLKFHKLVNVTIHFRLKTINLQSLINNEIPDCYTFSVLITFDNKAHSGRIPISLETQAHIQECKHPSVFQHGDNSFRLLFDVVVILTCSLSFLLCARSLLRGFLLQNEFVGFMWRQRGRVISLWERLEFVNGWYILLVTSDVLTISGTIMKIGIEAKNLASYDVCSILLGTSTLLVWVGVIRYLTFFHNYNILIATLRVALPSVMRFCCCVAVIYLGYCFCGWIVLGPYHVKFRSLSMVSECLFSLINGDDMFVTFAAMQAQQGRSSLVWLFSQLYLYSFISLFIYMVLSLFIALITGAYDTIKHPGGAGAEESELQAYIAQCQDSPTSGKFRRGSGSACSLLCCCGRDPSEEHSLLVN
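Tet-induced TRPML1-DL cells, 1,500 per well, cultured overnight, were loaded with a no-wash Ca2+ dye for 45–90 min. Calcium fluorescence was recorded on the FDSS for 110 s after compound addition, before the EC80 agonist (4 uM 54-4) was added.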
D2 potentiator – potentiates the human D2 dopamine receptor allosterically; P14416; DiscoveRx D2 beta-arrestin cells, luminescence, 90 min; 100% = 57 uM dopamine signal; potentiation, % (concentration not given with the values); hit rate 0.23% among 360,000; active = potentiation of 50% or more; inconclusive = 30% to 50%; inactive = 30% or less;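 further: compound concentration not given in the record; tested on top of an EC20 dose of dopamine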
Target sequence (P14416 whole entry, looked up): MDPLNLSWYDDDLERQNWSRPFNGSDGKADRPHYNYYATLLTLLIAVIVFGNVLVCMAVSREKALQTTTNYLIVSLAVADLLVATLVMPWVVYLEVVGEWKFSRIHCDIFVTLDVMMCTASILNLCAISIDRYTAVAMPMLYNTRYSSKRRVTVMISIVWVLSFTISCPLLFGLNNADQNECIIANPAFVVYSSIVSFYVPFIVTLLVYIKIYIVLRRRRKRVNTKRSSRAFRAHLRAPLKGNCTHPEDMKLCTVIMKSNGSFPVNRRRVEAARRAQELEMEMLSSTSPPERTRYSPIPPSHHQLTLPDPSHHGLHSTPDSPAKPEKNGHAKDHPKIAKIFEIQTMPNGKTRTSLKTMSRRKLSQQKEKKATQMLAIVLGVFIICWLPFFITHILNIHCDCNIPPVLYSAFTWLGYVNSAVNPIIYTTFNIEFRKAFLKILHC
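PathHunter D2 cells, attached overnight at 37 deg C, received compound in DMSO plus dopamine at EC20 (50 nM final) for 90 min at 37 deg C. Beta-arrestin recruitment was read as luminescence after 1 h with detection reagent at ambient temperature.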
PINK1 expr mod – PINK1 expression modulation | Potency, µM (highest dose often 76.6 µM), inactives show at the highest dose activation (PINK1 increase), hits mostly activators | hit rate 0.2% among 410,000 | AID 624263 | PINK1 immunofluorescence, high-content cytometry, 24 h; active = well fitted activation curve with a large enough effect; inconclusive = small, poorly fitted or top-dose-only effect; inactive = flat fitted curve, though single readings scatter; cell line not stated here;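 further: potency means the concentration at half of the fitted maximal effect; % of control where 0% means no effect; nearly all actives have a fitted effect of over 65% in size; a mitochondrial uncoupler was the plate control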
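Cells are seeded, rested 12 hours, then given compound at five concentrations or DMSO for 24 hours. After fixation, blocking and antibody staining, PINK1 amount and mitochondrial localization are scored; CCCP serves as control.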
Six1-Eya2 inh – inhibitors of human Six1/Eya2 interaction; activity change, % (no concentration beside the values); hit rate 0.56% among 360,000; AlphaScreen GST-Six1/His-Eya2 binding, biochemical; stronger effect = lower value; control for the full effect not named in the record; in the data active = activity change below about -65%; inconclusive = about -30% to -65%; inactive = above about -30%; further: on the % scale 0 is the no-effect control and ±100 the full control effect; compound concentration not given in the record
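Compounds are tested against tagged Six1 and Eya2 proteins bridged by glutathione donor and nickel acceptor beads; after a one-hour incubation at 37 °C without light, AlphaScreen emission is recorded.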
D2 agonist – agonists of human D2 dopamine receptor (beta-arrestin) | DiscoveRx PathHunter D2 beta-arrestin, luminescence, 90 min; 100% = 57 uM dopamine signal | activation, % (no concentration beside the values) | hit rate 0.084% among 360,000 | AID 624465; in the data active = activation above about 40%; inconclusive = about 15% to 40%; inactive = below about 15%; further: compound concentration not given in the record; the text of the record calls up to 30% inactive
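Agonist mode: compounds alone added to overnight-plated D2 PathHunter cells for 90 min at 37 C, with 57 uM final dopamine (EC100) defining full response. Beta-arrestin recruitment detected by chemiluminescent reagent, read after 1 h at ambient temperature.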
TRPML1 inh – inhibitors of human TRPML1 channel; activity change, negative = inhibition, % (test concentration not listed); AID 624415; TRPML1-inducible cells, Ca2+ dye fluorescence, FDSS; stronger effect = lower value; inhibition of EC80 agonist-evoked calcium signal; Q9GZU1; hit rate 0.02% among 390,000; in the data active means activity change below about -50%; inconclusive means about -30% to -50%; inactive means above about -30%;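 further: stimulus is agonist 54-4 at its EC80 concentration; on the % scale 0 is the no-effect control and ±100 the full control effect; compound concentration not given in the record; the text of the record puts the active cut at -80%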
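Tet-induced TRPML1-DL cells loaded with Ca8 no-wash calcium dye were read kinetically on FDSS. Compound addition was followed by EC80 agonist 54-4 (4 uM final); inhibition was read over 110 s.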
An asterisk follows results filed as active; ? = inconclusive; nt = no result given; [ ] = remark or other dose.

smiles,TRPML1 ag,D2 potentiator,PINK1 expr mod,Six1-Eya2 inh,D2 agonist,TRPML1 inh
Fc1ccc(CNC(=S)NC2CCCCCC2)cc1,-0.6,-42,?,-5,-0.1,0
O=C(COC(=O)c1ccc(F)cc1F)NCc1ccc2c(c1)OCO2,1.5,-7,-0.4%,5,-1.5,-9
CCn1c(SCC(=O)N/N=C(/C)c2ccncc2)nc2ccccc21,0.7,-9,0.8%,-4,0.5,10
c1ccc(CSc2nnc(-c3cccnc3)o2)cc1,1.3,0,-0.7%,10,-4.2,4
CCOC(=O)COc1ccc2c(C)cc(=O)oc2c1C(=O)c1ccccc1,0.9,1,0.7%,24,-2.5,0
CN(C(=O)COC(=O)C1CCN(S(=O)(=O)c2ccc(Cl)cc2)CC1)C1CCS(=O)(=O)C1 (configuration not stated),-0.3,1,12%,-1,-1.2,5
CC1=CSC2=NC(C(F)(F)F)(C(F)(F)F)NC(=O)N12,-0.7,-19,4.9%,-2,-6.5,-3
Cc1c(C)n(Cc2ccccc2)c2ccc(C(=O)NC(C)c3ccccc3)cc12 (configuration not stated),1.0,nt,0.3%,nt,nt,-22
Cc1ccc(NC(=O)Cc2cn(C)c3ccccc23)cc1F,2.9,-8,1.7%,-11,0.4,-20
Cc1ccc(NC(=O)Nc2ccc3c(c2)OCO3)cc1F,-0.2,-13,-0.7%,6,0.1,-12
CCOc1ccccc1NCN1C(=O)c2ccccc2C1=O,-0.8,-3,1.1%,8,-1.1,-8
Cc1ccc(C2C3=C(CCCC3=O)Nc3[nH]c(=S)[nH]c(=O)c32)cc1 (configuration not stated),-0.7,-8,13%[38.3 µM],-3,-1.7,-6
COc1ccc(CCNS(=O)(=O)CCNC(=O)c2ccc3c(c2)OCO3)cc1OC,-0.6,-2,1.9%,-1,-4.7,22
NC(=O)Nc1ccc(C(=O)OCC(=O)Nc2sccc2C(N)=O)cc1,-0.4,9,5.6%,-9,-4.0,-9
Cc1cc(C)c2nc(-c3ccccc3)ccc2c1,0.0,-1,4.6%,38,-2.8,nt

Following part.
smiles,TRPML1 ag,D2 potentiator,PINK1 expr mod,Six1-Eya2 inh,D2 agonist,TRPML1 inh
O=C(CCn1c(=O)oc2ccccc21)NCCN1CCOCC1,0.3,-3,-0.2%,13,-4.0,-12
Nn1c(Nc2ccccc2)nc2sc3c(c2c1=O)CCCC3,-1.4,-8,5.9%,8,-0.3,-17
CN(Cc1ccccc1)C(=O)CNC(=O)Cn1cnc2ccccc2c1=O,-0.6,-5,-3.1%,5,0.3,-25
O=C1C(C=NCc2ccco2)=C(O)c2ccccc21,-0.3,-5,-1.8%,2,-3.3,28
COc1cc(NC(=S)NCCCN2CCOCC2)c(OC)cc1Cl,-0.5,-13,-1.1%,-2,2.4,11
COc1cc(C(=O)NCC(c2cccs2)N2CCOCC2)ccc1OCc1ccc(Cl)cc1 (configuration not stated),-0.9,-21,2.2%,-6,-11,-8
O=C(NCCc1ccccc1)c1ccc(CSc2nc3ccncc3n2Cc2ccccc2F)cc1,0.8,nt,0.4%,nt,nt,4
C[C@H](CO)N1C[C@H](C)[C@@H](CN(C)S(=O)(=O)c2cccs2)Oc2c(NS(=O)(=O)c3ccccc3)cccc2C1=O,-0.2,1,1.1%,5,3.8,-7
CCCOc1cc(N)ccc1C(=O)OCCN(CC)CC,0.0,-21,1.6%,3,-5.4,2
O=C(Nc1ccc(S(=O)(=O)N2CCCC2)cc1)c1ccc(Br)o1,-0.6,-4,1.8%,1,1.4,-7
CCc1nnc(NC(=O)c2nc(SCc3ccccc3F)ncc2Cl)s1,2.1,nt,1.1%,nt,nt,11
Cc1ccc(S(=O)(=O)N2CCN(S(=O)(=O)N3CCCCCC3)CC2)cc1,-0.2,-4,0.9%,3,3.2,5
Cc1ccc(-n2c(=S)[nH]c3sc4c(c3c2=O)CCc2ccccc2-4)cc1,1.4,-2,-0.4%,12,-2.5,-21
Cc1ccc(Cn2c(NC(=O)c3ccco3)nc3ccccc32)cc1,3.2,-5,1.6%,12,0.7,-5
O=C(CNc1ccccc1)NN=C1CCCC1,-0.4,-4,0.0%,9,-2.5,23

Remaining list, next part:
smiles,TRPML1 ag,D2 potentiator,PINK1 expr mod,Six1-Eya2 inh,D2 agonist,TRPML1 inh
CCc1ccc(-c2cn3c(n2)SCC3)cc1,1.3,-19,0.1%,-2,-8.7,16
Cc1ccc(C(=O)O/N=C(\N)c2ccc(Br)cc2)cc1C,-0.7,?,13%,0,9.8,0
COc1ccc(/C(O)=C2/C(=O)C(=O)N(Cc3ccco3)C2c2cccs2)cc1 (configuration not stated),0.6,-8,2.6%[38.3 µM],1,-1.2,6
COc1ccc(-c2cc(C(=O)N3CCN(c4ccccc4)CC3)no2)cc1OC,1.7,-3,8.3%,-28,-0.4,-2
Cc1ccc(Nc2sc(C(=O)c3ccccc3)c(N)c2C(N)=O)cc1,-0.1,nt,2.9%,nt,nt,-9
Cc1ccc(CONC(=O)c2cccc([N+](=O)[O-])c2)cc1,2.6,-4,1.4%,5,6.6,27
CC1N(C)c2cc(NC(=O)c3cccs3)c(P(=O)(Nc3ccc([N+](=O)[O-])cc3)N3CCOCC3)cc2C1(C)C (configuration not stated),1.3,-5,2.7%,-18,-2.3,0
Cc1ccc(-c2nnn(CC(=O)N(c3ccccc3)C(C(=O)NC(C)(C)C)c3cccs3)n2)o1 (configuration not stated),-0.4,-15,8.5%,5,-2.4,-3
S=c1[nH]c2ccc(Cl)cc2s1,-0.1,-26,0.7%,0,10,-7
CC(C)CCN1CCN(C/C=C/c2ccco2)CC1CCO (configuration not stated),-0.4,-23,-0.5%,2,-3.8,-27
Cc1ccc(SCCOCCN2CCc3ccccc3C2)cc1,2.0,-21,15%,3,-4.8,13
COc1cc(CNC(=O)CCn2nc(C)c3c(C)n(-c4ccccc4)nc3c2=O)cc(OC)c1OC,0.8,-1,1.4%,1,5.0,6
CCC(C)(C)NC(=O)C(c1cccn1C)N(C(=O)Cn1nnc2ccccc21)c1ccc(OC)cc1 (configuration not stated),0.0,12,3.0%,-3,-1.9,-3
COc1ccc(/C=C/C=N/NC(=O)COc2ccc(OC)cc2)cc1,1.3,18,1.0%,-4,-3.4,14
O=C1N(c2ccccc2)c2ccccc2C1(O)C(F)(F)F (configuration not stated),-0.4,-4,0.3%,-15,-1.8,-7

Further structures follow.
smiles,TRPML1 ag,D2 potentiator,PINK1 expr mod,Six1-Eya2 inh,D2 agonist,TRPML1 inh
Nc1ccc2[nH]ncc2c1,-0.7,10,-0.5%,-24,-1.0,6
CN1Cc2cc(C(=O)c3ccccc3O)cnc2NC1=O,-0.4,-7,3.2%,-4,-3.8,1
CC(c1ccccc1)N1C(=O)/C(=C/c2ccncc2)SC1=S (configuration not stated),1.0,-11,-1.5%,-4,4.9,79
N#Cc1c(Nc2ccccc2)c(/C=N/NCCO)c[nH]c1=O,0.7,4,-1.9%,1,4.5,22
COc1ccc(Nc2nc(Cl)nc(NCc3ccco3)n2)c(OC)c1,0.6,-11,-0.8%,-1,-3.0,-2
N#Cc1ccc(NCCc2ccccn2)c([N+](=O)[O-])c1,2.9,8,0.2%,-1,0.7,39
O=Cc1ccc(OCc2cccc(C(F)(F)F)c2)cc1O,0.5,-3,18%,3,3.1,4
CCOc1ccc(NC(=O)c2cc3ccccc3cc2O)cc1,0.2,24,?,-3,11,-3
CC(=O)Nc1ccc(S(=O)(=O)Nc2nnc(CC(C)(C)C)s2)cc1,-0.1,-7,2.4%,-8,-0.7,42
COc1ccc(CCn2c(Br)nc3c2c(=O)[nH]c(=O)n3C)cc1,-0.2,5,2.9%[38.3 µM],2,-2.1,-21
Cc1ccc2c(c1)N(CC(=O)N1CCN(C3CCCCC3)CC1)C(=O)CO2,0.0,-6,-1.4%,4,-2.3,14
Cc1nn(-c2ccccc2)c(Cl)c1C(=O)N1CCN(c2ncnc3c2cnn3-c2ccccc2)CC1,2.7,?,-2.7%,-21,10,13
CC(=O)c1ccc(N2CCN(C(=O)Cc3n[nH]c(=O)c4ccccc34)CC2)cc1,-0.1,-6,0.2%,-3,0.4,-4
O=C(NC1CCCCC1)C(c1ccncc1)N(C(=O)c1csnn1)c1ccccc1F (configuration not stated),-0.6,-6,0.2%,0,-0.7,7
OCC1(Cc2ccc(Cl)cc2)CCN(Cc2ccc(F)c(F)c2)CC1,1.3,-34,3.6%,0,4.9,-8

Pulled one by one from above (two):
smiles,TRPML1 ag,D2 potentiator,PINK1 expr mod,Six1-Eya2 inh,D2 agonist,TRPML1 inh
Cc1ccc2c(c1)N(CC(=O)N1CCN(C3CCCCC3)CC1)C(=O)CO2,0.0,-6,-1.4%,4,-2.3,14
CN1Cc2cc(C(=O)c3ccccc3O)cnc2NC1=O,-0.4,-7,3.2%,-4,-3.8,1

Later entries.
smiles,TRPML1 ag,D2 potentiator,PINK1 expr mod,Six1-Eya2 inh,D2 agonist,TRPML1 inh
COc1ccccc1/C=C\C=N\n1c(-c2ccc(Cl)cc2Cl)n[nH]c1=S,0.6,-22,2.4%,-11,1.0,30
Cc1ccc(-c2nnc(-c3ccc(NC(=O)c4ccco4)cc3)o2)cc1,-0.4,3,10.0%,1,-0.3,1
O=c1[nH][nH]c(-c2ccccc2)c1C=Nc1ccccc1Cl,-0.4,0,-0.7%,-5,-0.2,-2
CC1CN(C(=O)C(C)N2CCN(c3ccccc3Cl)CC2)CC(C)O1 (configuration not stated),-1.0,-11,-0.6%,5,-6.8,-4
COC1CCCN(Cc2c(C(=O)N3CCN(C4CCCCC4)CC3)nc3ccccn23)C1 (configuration not stated),-0.1,-16,-0.4%,3,-1.6,8
CCCCCC(=O)Nc1ccc(N2CCN(CC)CC2)c(Cl)c1,0.4,-18,-1.6%[38.3 µM],20,-2.0,8
CN1CCN(C2CN(C3CCCC3)S(=O)(=O)C2)CC1 (configuration not stated),-0.1,-4,3.4%,13,-5.0,nt
O=C(c1ccccc1Br)N(Cc1ccccc1F)C1CCS(=O)(=O)C1 (configuration not stated),-0.7,nt,1.2%,nt,nt,-12

Some of these compounds in order of their number in D2 agonist, rising:
SMILES,D2 agonist
O=C(CCn1c(=O)oc2ccccc21)NCCN1CCOCC1,-4.0
O=c1[nH][nH]c(-c2ccccc2)c1C=Nc1ccccc1Cl,-0.2
CCn1c(SCC(=O)N/N=C(/C)c2ccncc2)nc2ccccc21,0.5

Screening results (PubChem)
